PV pol inh – poliovirus RdRp elongation inhibitors, primary screen, biochemical, fluorescence polarization, total intensity | 150,000 compounds, 0.66% hits | % elongation, % (compound at 16.7 µg/mL) | poliovirus polymerase elongation; hits give low values; in the data active = % elongation below about 90%; also: some results filed as inactive read as strong as hits
Mtb MenB inh – M. tuberculosis MenB inhibitors, primary screen, biochemical, absorbance. MenB enzyme assay, absorbance read-out; some hits fall short of the stated cut. 100,000 compounds, 0.43% hits. inhibition, %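 (about 12 µg/mL by stock and volumes)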;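 active = mean of two replicates above 30%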;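 also: 0% = no compound and 100% = wells with inactive enzyme; the first replicate is given; strong numbers were not always called active; inactives centre near -10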
Target sequence (P9WNP5 whole entry, looked up): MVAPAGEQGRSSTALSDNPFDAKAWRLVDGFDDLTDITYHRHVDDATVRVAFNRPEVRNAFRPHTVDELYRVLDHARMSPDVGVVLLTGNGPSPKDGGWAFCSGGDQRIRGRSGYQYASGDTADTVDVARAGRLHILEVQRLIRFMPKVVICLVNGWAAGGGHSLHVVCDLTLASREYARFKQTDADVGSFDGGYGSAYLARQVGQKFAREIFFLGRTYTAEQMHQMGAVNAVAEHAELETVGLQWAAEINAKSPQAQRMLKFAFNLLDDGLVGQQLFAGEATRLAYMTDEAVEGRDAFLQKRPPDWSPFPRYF
Mtb MbtI inh – MbtI salicylate synthase inhibitors, primary screen, biochemical, fluorescence intensity; P9WFX0; purified MbtI enzyme, fluorescence intensity read-out; inhibition, %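 (about 17 µg/mL by stock and volumes)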; 100,000 compounds, 0.89% hits; AID 493033, 2011;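 active = above 50% in both replicates, above 80% if mildly self-fluorescent; inactive = the rest, strongly fluorescent compounds included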;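 also: 0% = mean of negative and 100% = mean of positive controls; one replicate is shown; some compounds called inactive have numbers as strong as hits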
Target sequence (P9WFX0 whole entry, looked up): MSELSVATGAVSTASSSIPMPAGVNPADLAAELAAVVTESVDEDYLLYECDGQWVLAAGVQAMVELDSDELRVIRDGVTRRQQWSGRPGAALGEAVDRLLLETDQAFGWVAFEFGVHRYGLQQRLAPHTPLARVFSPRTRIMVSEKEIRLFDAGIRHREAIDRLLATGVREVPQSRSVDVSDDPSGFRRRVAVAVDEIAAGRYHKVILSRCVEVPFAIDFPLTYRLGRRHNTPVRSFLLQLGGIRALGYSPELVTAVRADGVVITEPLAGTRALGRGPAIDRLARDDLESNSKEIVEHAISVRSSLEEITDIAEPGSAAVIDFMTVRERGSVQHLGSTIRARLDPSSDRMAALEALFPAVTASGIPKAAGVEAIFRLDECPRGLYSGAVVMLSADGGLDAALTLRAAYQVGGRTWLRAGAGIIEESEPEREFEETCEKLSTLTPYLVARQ
PV pol inh intensity – recorded beside PV pol inh, whose call it bears; % elongation; measured here: total intensity read-out; formula for this scale not given here;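 total fluorescence in place of polarization; lower means less elongation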
The depositor's hits bear a star; / = no result given. Outcome played no part in choosing rows. About 1.9% of those tested had a hit in this group.

Start of the listing, in advance (five entries):
SMILES	PV pol inh	PV pol inh intensity	Mtb MenB inh	Mtb MbtI inh
CCn1nnc2cc(C(=O)NCC(c3ccccc3OC)N(C)C)ccc21 (stereo not given)	106	110	-19	-1
CCc1cc(C(=O)c2ccc(OC)cc2)c(NC(=O)c2ccc(C(F)(F)F)cc2)s1	104	110	-5	-8
COc1ccc(CC(=O)OCC(=O)c2ccccc2)cc1OC	101	105	-7	-14
CC(C)c1nc2ccccc2n1CC(=O)N(c1ccccc1)C(C)C	105	98	/	0
O=C(NCc1ccccc1)C1CCCN(S(=O)(=O)c2ccc3nc(-c4ccccc4)[nH]c3c2)C1 (stereo not given)	101	105	1	109

Main list, repeating the preview:
SMILES	PV pol inh	PV pol inh intensity	Mtb MenB inh	Mtb MbtI inh
CCn1nnc2cc(C(=O)NCC(c3ccccc3OC)N(C)C)ccc21 (stereo not given)	106	110	-19	-1
CCc1cc(C(=O)c2ccc(OC)cc2)c(NC(=O)c2ccc(C(F)(F)F)cc2)s1	104	110	-5	-8
COc1ccc(CC(=O)OCC(=O)c2ccccc2)cc1OC	101	105	-7	-14
CC(C)c1nc2ccccc2n1CC(=O)N(c1ccccc1)C(C)C	105	98	/	0
O=C(NCc1ccccc1)C1CCCN(S(=O)(=O)c2ccc3nc(-c4ccccc4)[nH]c3c2)C1 (stereo not given)	101	105	1	109
CCO/C=N/c1oc(C)c(C)c1C#N	92	143	-25	65
Clc1ccc(/C=N/c2ccccn2)cc1	103	100	-10	/
O=C(CCCn1sc2ccccc2c1=O)NC1CCCc2ccccc21 (stereo not given)	107	104	-15	18
O=C(CN1CCCCC1)Nc1ccccc1-c1nc2ccccc2[nH]c1=O	/	/	-16	-3
Cc1c(C(=O)Nc2ccc(F)cc2)oc2ccc3c(c12)C(=O)CC(C)(C)O3	104	106	-2	-14
CCOCCC(=O)N1CCC(C(=O)OCC)CC1	101	100	2	-4
Nc1cccc(C(=O)Nc2ccccc2N)c1	100	103	-4	11
CCCn1ccc(C(=O)O)n1	102	102	-5	21
CC(=O)N(Cc1ccccc1)c1ccccn1	104	112	-12	/
O=C1c2ccccc2C(=O)N1CCSc1ccccc1	100	104	-4	6
CCOC(=O)c1cnc(N2CCOCC2)nc1N	109	113	3	-3
O=C(CN1CCN(S(=O)(=O)c2ccc3c(c2)OCCO3)CC1)NC1CCCc2ccccc21 (stereo not given)	101	110	-9	-17
N#CCCn1cc(CO)c(-c2ccccc2)n1	106	101	-46	-4
O=C(O)Cc1nc2ccccc2s1	109	112	-19	6
O=C(Cn1c(=O)n(Cc2ccco2)c(=O)c2sc3ccccc3c21)Nc1ccccc1	101	104	3	20
COC(=O)C1C(=O)C=C(Nc2cc(OC)ccc2OC)CC1c1ccc(OC)cc1 (stereo not given)	103	107	-11	/
COC(=O)c1sc(=S)n(C)c1C	103	107	10	3
Cc1cc(=O)[nH]c(SCc2nnc(-c3ccccc3)o2)n1	102	102	18	-4
Cc1ccc(=O)n(Cc2ccc(F)cc2)n1	103	102	4	-3
CCOc1ccc(C(=O)N2CCC(C)CC2)cc1	100	102	-16	-15
CCOC(=O)/C(=N\O)c1c(C)nn(C)c1C	101	108	8	-11
COc1cc(NC(C)C(=O)N(C)c2ccccc2)cc(OC)c1OC (stereo not given)	104	100	-25	1
COc1cccc(NC(=O)Cn2c3ccccc3c3nc(=O)cc(C)n32)c1	105	103	-3	15
CN(C)CC(O)C12CC3CC(CC(C3)C1)C2 (stereo not given)	101	98	/	1
Cc1nc2c(c(C)nn2C(C)(C)C)c(C)c1CCC(=O)Nc1ccccc1	101	99	4	6
CCc1cccc(NC(=S)N(C2CCCCC2)C(C)c2cccs2)c1 (stereo not given)	104	107	-33	1
O=C(COC(=O)c1ccc(Br)o1)NCc1ccccc1	99	96	/	-14
O=C1CS/C(=C/c2nc3ccccc3[nH]2)N1	99	104	/	-1
CCn1c(C)nc2cc(C(=O)OCCC(F)(F)F)ccc21	107	104	15	14
Cc1cc(C)c(C#N)c(N2CCN(CCOc3ccc(Cl)cc3)CC2)n1	98	103	-20	-10
CN(Cc1ccccc1)Cc1ccccc1O	101	102	-14	-10
CC1CSC(N(C(=O)CN2C(=O)COc3ccccc32)c2ccc(Cl)cc2)=N1 (stereo not given)	103	110	1	14
Cc1nc2sc3c(c2c(=O)n1O)CCCC3	101	103	-15	-11
CN(CC(=O)Nc1cccc2nsnc12)c1ccccc1	/	/	-13	2
COc1ccccc1NS(=O)(=O)c1cccc(C(=O)N/N=C/c2ccc(C)o2)c1	102	103	-22	-9
COc1cc(SC)ccc1C(=O)NC(C)C	108	107	1	/
O=C(O)c1cccnc1Sc1ccccc1Cl	125	161	-21	-2
COc1ccc2oc(=O)c(C(=O)NCCN3CCOCC3)cc2c1	100	103	-10	65
CCN(CC)C(=O)c1ccc(CS(=O)c2cccc(Cl)c2)o1 (stereo not given)	103	102	-11	7
O=S1(=O)NC(=NC2CCCc3ccccc32)c2ccccc21 (stereo not given)	110	104	12	26
COc1ccccc1Oc1ncnc2c1oc1ccccc12	105	106	-37	7
COCCn1c(O)c(/C=N/NS(=O)(=O)c2ccc(C)cc2)c(=O)[nH]c1=S	105	108	-26	-1
NNC(=O)c1cccc(S(=O)(=O)Nc2ccccc2Cl)c1	102	112	-13	-7
CC1CCc2ccccc2N1C(N)=Nc1ccccc1 (stereo not given)	101	106	7	/
O=C1C(=O)N(c2ccccn2)C(c2ccccc2)/C1=C(/O)c1ccccc1 (stereo not given)	99	101	-21	1
COc1ccc(S(=O)(=O)N(C)C2CCCCC2)cc1	98	102	4	-2
Cc1cc(-c2ccccc2)nn1C(CC(=O)O)C(=O)O (stereo not given)	102	107	7	1
N#C/C(=C\N1CCN(c2ccccc2)CC1)S(=O)(=O)c1ccccn1	106	105	1	-5
CC(=O)NNc1ncc(C(F)(F)F)cc1Cl	102	95	2	7
CCn1c(SCc2cccc(C(=O)O)c2)nnc1-c1ccco1	105	102	5	-5
COc1cc(Cl)c(C)cc1NC(=O)CNC(=O)c1ccco1	99	95	-7	10
CN(C)S(=O)(=O)c1ccc(C(=O)OC2CCOC2=O)cc1 (stereo not given)	106	111	-7	-7
CCC(CC)NC(=O)c1ccc(S(=O)(=O)N2CCCCC2)cc1	100	105	6	0
Cc1ccccc1Cn1nnc(-c2ccncc2)n1	103	108	-48	-6
CCCCN(C)C(=O)c1ccc2c(c1)N(CC)C(=O)c1ccccc1S2=O (stereo not given)	100	99	-8	0

Entries of single compounds as entered above:
NNC(=O)c1cccc(S(=O)(=O)Nc2ccccc2Cl)c1 across the screens: PV pol inh = 102; PV pol inh intensity = 112; Mtb MenB inh = -13; Mtb MbtI inh = -7
O=C(O)c1cccnc1Sc1ccccc1Cl across the screens: PV pol inh = 125; PV pol inh intensity = 161; Mtb MenB inh = -21; Mtb MbtI inh = -2

The listing continues.
SMILES	PV pol inh	PV pol inh intensity	Mtb MenB inh	Mtb MbtI inh
CC(=O)N1CCN(CC(O)COc2ccc(C)cc2)CC1 (stereo not given)	100	101	-15	-9
CN1C(C(=O)NC2CCCC2)=CC(c2cccs2)=NS1(=O)=O	103	104	-19	6
O=C(c1ccccc1)C1CN2CCC1CC2 (stereo not given)	106	108	0	/
CCc1ccc(C(=O)C(C)Sc2nncs2)cc1 (stereo not given)	103	108	-20	-6
CCS(=O)(=O)N1CCC(C(=O)NCc2ccc(OC)cc2)CC1	103	102	-30	-14
CN(C(=O)CC(=O)N(C)C1CCCCC1)C1CCCCC1	101	97	/	-2
O=C(Nc1ccc2c(c1)OCO2)c1ccc2c(c1)C(=O)N(C1CCCCC1)C2=O	100	101	-6	-9
CCc1c(/C(C)=N/NC(N)=O)oc2ccc(C)cc12	107	110	-8	-16
S=C(NCc1ccccc1)NN1CCCCC1	105	101	-38	1
Cc1cc(-n2c(C)cc(C(=O)CSc3nc4ccccc4o3)c2C)no1	98	98	-19	10
Cn1c(SCC(=O)N2c3ccccc3OCC2c2ccccc2)nnc1-c1ccco1 (stereo not given)	109	118	-29	3
CN(C)Cc1cc(C=NC2CCCCC2)c(S)s1	109	104	-3	/
CC1(C)OC(=O)C(C2C3C4CC5C6C4CC3C6C52)C(=O)O1 (stereo not given)	109	109	-20	1
COC(=O)c1cc(COC(=O)/C=C/c2nc3ccccc3s2)oc1C	103	90	20	-12
Cc1nc2ccccc2nc1CSCC(=O)c1cc(C)n(C)c1C	101	108	-3	0
COc1ccc(-n2cc(C(=O)N(Cc3ccco3)C3CCCC3)c3ccccc3c2=O)cc1	103	97	-6	-35
CC(C)NS(=O)(=O)c1ccc(NC(=O)C2CC2C)cc1 (stereo not given)	102	104	-8	-15
Cc1cccc(C(=O)NN(c2ccccc2)c2ccccc2)c1	106	101	-16	/
COC(=O)c1cc(C(O)(C(=O)OC)C(F)(F)F)c(N)s1 (stereo not given)	105	105	-27	2
CCC1CCCCN1C(=O)COC(=O)c1c2c(nc3ccccc13)CCC2 (stereo not given)	103	105	-13	94

Three neighbouring compounds from above, quoted:
SMILES	PV pol inh	PV pol inh intensity	Mtb MenB inh	Mtb MbtI inh
Cc1cccc(C(=O)NN(c2ccccc2)c2ccccc2)c1	106	101	-16	/
COC(=O)c1cc(C(O)(C(=O)OC)C(F)(F)F)c(N)s1 (stereo not given)	105	105	-27	2
CCC1CCCCN1C(=O)COC(=O)c1c2c(nc3ccccc13)CCC2 (stereo not given)	103	105	-13	94

Limited to Mtb MbtI inh and PV pol inh, for some of the entries so far:
SMILES	Mtb MbtI inh	PV pol inh
CN(C)Cc1cc(C=NC2CCCCC2)c(S)s1	/	109
Cc1nc2ccccc2nc1CSCC(=O)c1cc(C)n(C)c1C	0	101
CCc1c(/C(C)=N/NC(N)=O)oc2ccc(C)cc12	-16	107

Carrying on:
SMILES	PV pol inh	PV pol inh intensity	Mtb MenB inh	Mtb MbtI inh
CC(=O)[C@@]1(O)CC[C@H]2[C@@H]3C[C@H](C)C4=CC(=O)C=C[C@]4(C)[C@@]3(F)[C@@H](O)C[C@@]21C	102	101	1	-11
CC1CN(C(=S)c2ccccc2)CC(C)O1 (stereo not given)	96	101	-11	68*
CCOC(=O)c1ccc(N=C2N=C(N)c3ccccc32)cc1	99	105	-38	-6
Cc1nn(-c2ccc(F)cc2)c(Cl)c1C(=O)N1CCN(c2ncccn2)CC1	106	98	-15	-1
CCNCC(=O)Nc1nnc(-c2ccccc2)o1	101	107	-10	-3
O=C1COc2ccc(C(=O)COC(=O)c3cc(S(=O)(=O)NCc4ccccc4)ccc3O)cc2N1	102	107	-38	-12
COc1ccc(F)cc1CN1CCN(CC(=O)c2c(C)[nH]c3ccccc23)CC1	101	105	-6	-8
O=C(CSc1nc(-c2cccs2)nc2ccccc12)N1CCNC1=O	100	103	0	0
CC1CCCN(Cn2nnc3ccccc3c2=O)C1 (stereo not given)	99	86	-22	29
CN(C)/C=C1\CCCc2ccccc2C1=O	102	99	-24	7
NCCCC(=O)N1c2ccccc2Sc2ccccc21	100	102	8	-7
CCCNC(=O)CCc1c(C)n(CC)c2cc(-c3ccccc3OC)nn2c1=O	103	102	-24	88
O=C(CC1Sc2ccccc2NC1=O)OCc1nc2scc(-c3ccco3)c2c(=O)[nH]1 (stereo not given)	124	139	-9	2
CC1(C)CC(=O)C(CC(=O)NC(=O)NCc2ccccc2)=C(O)C1	100	103	-26	9
CCOC(=O)N1CCN(C(=O)CCn2nc(-c3ccc(Cl)cc3)ccc2=O)CC1	104	106	1	13
O=C(O)CNC(=O)c1cccc(Br)c1	100	99	-5	6
CN(Cc1ccccc1)C(=O)CSc1ncnc2ccccc12	100	101	/	2
CC1(C)CC(NC2CCCCC2)CC(C)(C)N1	102	103	-11	/
O=C(NO)c1nc[nH]c1C(=O)NO	105	102	7	0
CC1=NN(C(=O)CC#N)C(O)(c2ccccc2)C1 (stereo not given)	103	102	-7	10
O=C(NCc1ccco1)N(Cc1ccc2c(c1)OCO2)C1CCN(Cc2ccccc2)CC1	101	101	12	-3
CC1CCN(C(=O)Cn2cc(C(=O)C3CC3)c3ccccc32)CC1	101	101	16	-2
O=C(Cc1ccc2c(c1)CCCC2)N1CCN(c2ncccn2)CC1	94	97	-12	52
Cn1nc(C(=O)N2CCOCC2)cc1C(=O)N1CCOCC1	103	97	0	/
CCn1c(CCNC(=O)C2CCCO2)nnc1SC (stereo not given)	107	102	-36	-5
CN(C)/C=C1/C=C(c2ccccc2)OC1=S	99	90	-168	80*
COC(=O)c1c(-c2c(Cl)cccc2Cl)noc1NC(=O)NCc1cccs1	102	102	-18	-14
Cc1ccc(C(=O)CSc2nnc3nc(C)cc(C)n23)cc1	107	109	-31	-15
O=C(Nc1ccccc1C(=O)O)c1ccc(CN2CCOCC2)cc1	103	95	-15	-3
Cc1ccc(OC(=O)CCC(=O)Nc2cccc(C#N)c2)cc1	102	105	-25	/
Cc1noc(/C=C/c2cccs2)c1S(=O)(=O)N1CCCC(C(=O)NCC2CCCO2)C1 (stereo not given)	100	96	-21	15
COc1ccc(CCNC(=O)C2CCN(C(=O)N(C)C)CC2)cc1OC	101	101	-26	-26
CCOC(=O)Cc1c(SC)c2ccccc2n1C	101	88	-25	/
CC(NS(=O)(=O)c1ccccc1)c1nc(-c2ccccc2)no1 (stereo not given)	103	98	17	3
CCSc1n[nH]c(-c2cccs2)n1	95	93	-48	106
O=C(CNC(=O)C(c1ccccc1)c1ccccc1)NC1CCCCC1	105	109	-3	/
Cc1ccc(NS(C)(=O)=O)c(C)c1	104	103	-13	0
CCOC(=O)C1CCN(C(=O)COC(=O)c2ccc(O)cc2)CC1	106	108	4	9
CCc1cccc2c(C(=O)COC(=O)C3=NNC(=O)CC3)c[nH]c12	104	108	-19	-3

Source: PubChem (ICCB-Longwood Screening Facility, Harvard Medical School)
